FGF22 binding = binders of human FGF22 protein, primary screen, FGF22 synaptogenesis inhibitor project, biophysical, thermal shift, single point. Fibroblast growth factor 22 (Homo sapiens), Q9HCT0. recombinant FGF22 thermal shift, SYPRO orange fluorescence; percent of sucrose octasulfate shift, DMSO zero. calls only at 9.99 µM. hit rate 1.5% among 340,000. AID 651658, 2012;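 active = melting point raised past a set limit in the mean and every replicate; inconclusive = no clear call; three in four hits are not shown here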
Target sequence (Q9HCT0 whole entry, looked up): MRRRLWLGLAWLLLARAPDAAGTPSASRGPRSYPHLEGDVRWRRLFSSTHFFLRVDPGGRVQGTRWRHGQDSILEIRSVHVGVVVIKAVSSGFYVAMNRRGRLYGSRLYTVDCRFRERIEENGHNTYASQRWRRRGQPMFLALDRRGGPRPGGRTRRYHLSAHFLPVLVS
rRNA inh HTS = reduced GFP signal of wild-type E. coli, primary screen, bacterial rRNA inhibitor project, GFP/RFP fluorescence, OD600, single point. E. coli WT GFP vs humanized-ribosome RFP mutants, 24 h; active compounds read low; DMSO median 0, no signal -100. GFP signal change (wild-type ribosome), % (test concentration not listed). hit rate 1.6% among 350,000. AID 720706, 2013;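 active = significant combined selectivity score with lowered wild-type GFP, culture density cut under 30%, mutant RFP and density less affected; inactive = any of these conditions unmet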; note: one replicate is shown; some compounds called inactive have numbers as strong as hits
HNF4A DNA FP = change in binding of human HNF4A to DNA, primary screen, biochemical, fluorescence polarization, FITC-DNA. Hepatocyte nuclear factor 4-alpha (Homo sapiens), P41235. 1 h. activity change, % at 10 µM. hit rate 0.3% among 360,000. AID 1224865, 2016; in the data active = activity change above about 30%, passing the limit was not always enough;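 note: controls were the assay level and a saturating level of protein; the project sought stronger binding though the title names inhibitors; some compounds called inactive have numbers as strong as hits; positive values seem to mean higher polarization but the record does not say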
MLL AF4-AF9 inh = inhibitors of AF4 peptide binding to AF9, primary screen, biochemical, AlphaScreen, biotin-AF4 peptide, FLAG-AF9, single point | Protein AF-9 (Homo sapiens), P42568 | inhibition, % at 10 µM | hit rate 0.47% among 350,000 | AID 651704, 2012;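 active = every replicate reaching a set inhibition limit, whatever the replicate mean, cut at about 25% in these data; inconclusive = mean inhibition reaches that limit but some replicates miss it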;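 note: 0% = plate neutral control median and 100% = total signal loss; the record names both 10 and 1 µM as test concentration; the first replicate is given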
Target sequence (P42568 whole entry, looked up): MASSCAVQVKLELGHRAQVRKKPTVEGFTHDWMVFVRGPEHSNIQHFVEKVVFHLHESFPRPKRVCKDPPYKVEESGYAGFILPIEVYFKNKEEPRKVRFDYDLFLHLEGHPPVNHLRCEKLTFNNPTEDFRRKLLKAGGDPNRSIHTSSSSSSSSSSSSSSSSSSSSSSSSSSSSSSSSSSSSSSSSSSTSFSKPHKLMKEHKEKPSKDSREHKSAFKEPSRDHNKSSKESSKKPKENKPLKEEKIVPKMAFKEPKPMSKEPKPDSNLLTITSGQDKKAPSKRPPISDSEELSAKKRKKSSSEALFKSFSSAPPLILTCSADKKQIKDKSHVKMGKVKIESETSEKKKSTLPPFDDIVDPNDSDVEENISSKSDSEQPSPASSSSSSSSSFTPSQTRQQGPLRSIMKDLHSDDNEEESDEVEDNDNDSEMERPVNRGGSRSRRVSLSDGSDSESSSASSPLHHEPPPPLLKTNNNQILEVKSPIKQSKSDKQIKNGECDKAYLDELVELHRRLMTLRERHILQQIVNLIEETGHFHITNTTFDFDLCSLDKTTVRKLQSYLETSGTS
ALR inh = inhibitors of human ALR sulfhydryl oxidase, primary screen, biochemical, H2O2 detection, HRP-luminol luminescence, single point; FAD-linked sulfhydryl oxidase ALR (Homo sapiens), P55789; purified ALR, DTT oxidation; inhibition, % (concentration not given with the values); hit rate 3.8% among 290,000;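 active = mean and each replicate at 75% or more; inconclusive = only one of the two met; inactive = neither met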;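 note: stock transfer was 7.5 nL into about 7.5 µL; 0% = neutral wells and 100% = wells with inactivated enzyme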
Target sequence (P55789 whole entry, looked up): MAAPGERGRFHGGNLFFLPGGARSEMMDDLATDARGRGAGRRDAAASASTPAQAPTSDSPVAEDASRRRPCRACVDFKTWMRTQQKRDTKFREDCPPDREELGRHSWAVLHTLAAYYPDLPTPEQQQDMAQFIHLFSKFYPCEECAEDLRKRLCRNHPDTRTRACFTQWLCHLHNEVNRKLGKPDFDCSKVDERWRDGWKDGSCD
E coli growth = E. coli growth inhibition, primary screen, OD600 | Escherichia coli growth, 23 h; active compounds read low | OD600 absorbance (concentration not given with the values) | hit rate 0.21% among 330,000 | AID 1053175, 2014;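 active = OD600 absorbance below the run mean of sample wells minus 3.6 SD, in any replicate, cut at about 0.56 in these data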;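 note: stock transfer was 300 nL into about 60 µL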
Vif TR-FRET = inhibitors of Vif binding to APOBEC3G peptide, primary screen, biochemical, TR-FRET, GST-Vif 1-94, biotin-A3G peptide, dose response retest (AID 1117319) | hit rate 0.57% among 260,000 | inhibition, %; hits with a dose series show IC50 in µM | Virion infectivity factor (Human immunodeficiency virus type 1 group M subtype B (isolate … | TR-FRET GST-Vif / biotin-A3G peptide binding; higher % means a stronger effect; test concentration not given here; strong numbers were not always called active;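 active = above the screen mean plus three standard deviations and confirmed in dose response; inconclusive = results disagree or hit not tested in dose response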;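 note: Vif residues 1-94 fused to GST binding biotinylated APOBEC3G peptide 110-148; 0% = full assay without inhibitor and 100% = GST in place of GST-Vif; retest series ran down from 100 µM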
rRNA inh HTS OD600 = recorded beside rRNA inh HTS, whose call it bears; OD600 change, %; measured here: OD600 growth;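 optical density of the mix in the first replicate; 0 = DMSO median and -100 = no signal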
rRNA inh HTS RFP = recorded beside rRNA inh HTS, whose call it bears; RFP signal change, %; measured here: RFP humanized mutant strains;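 first replicate; 0 = DMSO median and -100 = no signal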
* = called active by the depositor; i = inactive; ? = inconclusive; . = not tested or not shown; & = joins results of further samples. This is a subset; count on the stated rates, not on these rows.

SMILES	FGF22 binding	rRNA inh HTS	rRNA inh HTS OD600	rRNA inh HTS RFP	HNF4A DNA FP	MLL AF4-AF9 inh	ALR inh	E coli growth	Vif TR-FRET
CCOc1ccc(OCCC(=O)OCC(=O)N2CCN(c3ccc(OC)cc3)CC2)cc1	i	8	6	-0.9	-0.4	0.1	1	0.68	0%
Cc1c(Cl)cccc1NC(=O)CSc1nc2ncc(Cl)cc2[nH]1	i	2	4	1.1	4.5	-8.2	-2	0.71	.
C[C@@]12C(=O)Nc3ccccc3C(=O)N1[C@H]1c3cc(Cl)ccc3OC[C@@H]1[C@@H]2c1ccccc1	i	-2	-10	-2.4	14	5.4	-3	.	.
CC1(C(=O)NC2CCCCCCC2)CCC(=O)N1Cc1cccnc1 (configuration not stated)	.	.	.	.	-1.1	.	-3	0.68	13%
COCC(=O)N1[C@H](CO)[C@H](c2ccccc2-c2cccc(C)c2)[C@@H]1C#N	i	-2	4	0.6	.	-2.0	.	.	.
CN1CCC(N2CCN(C3CN(Cc4ccccc4)S(=O)(=O)C3)CC2)CC1 (configuration not stated)	i	26	16	2.8	-1.4	-8.1	.	.	.
COc1ccccc1OC(C)C(=O)Nc1ccc2c(c1)n(C)c(=O)n2C (configuration not stated)	i	-1	-1	2.9	0.3	-0.4	-1	0.68	.
O=C(CSc1ncnc2c1oc1ccccc12)N1CCCc2ccccc21	.	.	.	.	-0.6	.	-5	0.7	-7%
Cn1cccc1Cc1nnc(SCC(=O)NCc2ccco2)n1-c1ccc(F)cc1	.	3	8	2.1	3.5	.	15	0.68	14%
CCOc1ccc(-c2noc(CCC(=O)O)n2)cc1	i	3	10	-2.6	0.2	-0.5	19	0.77	10%
O=C1CC(c2ccccc2)n2nc(N3C(=O)CCC3=O)nc2N1 (configuration not stated)	.	.	.	.	0.1	.	-4	0.66	17%
COCCCN(Cc1cccs1)S(=O)(=O)c1c[nH]c(C(=O)OC)c1	i	-1	-2	-0.5	1.5	-4.8	1	0.69	2%
CC(=O)Nc1cc(-c2nc3ccccc3o2)ccc1Cl	i	22	13	1.8	2.3	-4.8	-2	0.69	.
Fc1ccc(-c2n[nH]c(=S)n2Cc2ccccc2)cc1	.	-31	-28	-4.8	2.3	.	5	0.61	-3%
O=C(CCn1ccc2ccccc21)Nc1ccc(N2CCOCC2)cc1	.	.	.	.	0.9	.	.	0.72	?
CCCC(=O)N1CCN(c2nc3ccc(Br)cc3s2)CC1	i	-32	-31	-7.3	0.9	0.6	-8	0.69	.
Cc1ccc2ncccc2c1[N+](=O)[O-]	i	15	6	3.7	-1.1	-1.5	-8	0.69	.
O=C(O)C(CCCCN1C(=O)c2ccccc2C1=O)N1C(=O)c2ccccc2C1=O (configuration not stated)	.	.	.	.	1.4	.	3	0.72	-1%
O=C(COc1ccc(Cl)cc1Cl)Nc1ccc(CN2CCCCC2)cc1	i	-2	-9	0.7	-0.2	5.9	-8	0.71	?
Cc1noc(C)c1-c1ccc2ncnc(NCC3CCCCN3C)c2c1 (configuration not stated)	i	15	10	1.6	1.5	1.8	-11	0.78	.
Cc1cc(C(=O)OCC(=O)NCc2ccc(Cl)cc2Cl)c(C)o1	i	.	.	.	-1.7	-1.3	-1	0.72	.
CC(NC(=O)CN1C(=O)NC(C)(C2CC2)C1=O)c1ccc(F)cc1 (configuration not stated)	i	13	16	0.6	2.3	-0.8	.	0.67	-1%
CCOC(=O)c1ccc(/C=C2\c3ccccc3C(=O)N2c2ccccc2)cc1F	i	20	-28	8.2	-0.3	.	2	.	.
CCCNC(=O)N(C)C[C@@H]1Oc2ncc(C#C[C@@H](C)O)cc2C(=O)N([C@@H](C)CO)C[C@H]1C	i	3	-3	0.2	.	-3.3	.	.	.
COc1cccc2c1c(NC(=O)c1cc(C)on1)nn2C	i	-10	-9	2.4	2.4	1.5	-12	0.7	-12%
Cc1nn(CC(=O)N2CCN(c3ccccc3)CC2)c(=O)c2ccccc12	i	0	1	-0.6	-0.7	0.2	21	0.7	.
CCC(=O)N[C@H]1CC[C@@H](CCNC(=O)Nc2ccc(C(F)(F)F)cc2)O[C@@H]1CO	i	-56	-78	-16	.	6.2	.	.	.
Cn1cnnc1SCc1cccc(Br)c1	.	.	.	.	-1.0	.	2	0.71	6%
C=CCn1c(COc2ccccc2F)nnc1SCC(=O)Nc1cc(C)on1	i	-8	7	-1.2	0.3	-0.1	-3	0.69	-9%
CC(C)NC(=O)N(C)C[C@H]1Oc2c(NC(=O)C3CC3)cccc2C(=O)N([C@@H](C)CO)C[C@H]1C	i	2	1	-0.1	.	-3.9	.	.	.
Cc1nn(Cc2ccccc2Cl)c(C)c1NC(=O)c1noc2c1CCCCC2	.	.	.	.	4.9	.	1	0.64	0%
O=C(Nc1ccc(Cl)cn1)c1cc(S(=O)(=O)N2CCCCC2)ccc1Cl	.	.	.	.	12	.	-10	0.74	?
CC1CCC(NC(=O)CCN2C(=O)C3C4C=CC(C4)C3C2=O)CC1 (configuration not stated)	i	6	11	-1.2	4.7	-1.6	-6	0.67	.
O=C(Nc1nnc(S(=O)(=O)N2CCCCC2)s1)c1ccccc1Br	i	-5	-20	-13	2.5	-6.0	15	0.77	.
O=c1c2c([nH]c3ccccc13)CCC2	i	16	9	2.9	1.9	4.1	-5	0.63	.
COc1ccc(-c2nn(C)c3sc(C(=O)NCc4ccco4)cc23)cc1OC	.	.	.	.	0.7	.	1	0.68	9%
Cc1ccc(OCC(=O)N2CCN(C3=NS(=O)(=O)c4ccccc43)CC2)cc1	.	.	.	.	-1.2	.	0	0.63	-4%
COc1ccc(C(C)=O)cc1Cn1c(C)c(C(=O)NCc2cccc(C)c2)sc1=O	i	-6	1	-8.0	0.0	-1.2	.	.	.
O=C(c1ccccc1)c1cc(-c2ccccc2)on1	.	.	.	.	-3.6	.	0	0.71	-4%
CN(C(=O)c1cnccn1)c1nnc(-c2cnccn2)s1	.	.	.	.	-0.7	.	-5	0.79	-3%
Cc1cccc(/C=C(\C(=O)O)c2ccc(S(=O)(=O)N3CCCC3)s2)c1	i	-5	-38	-7.0	-9.1	-4.5	0	0.71	22µM*
Clc1cccc(OCCOCCN2CCNCC2)c1Cl	i	-16*	-4.1*	6.2*	3.5	13	-103	0.63	.
O=C(Nc1nnc(SCc2ccccc2)s1)c1cc2c(s1)CCCC2	.	.	.	.	-3.6	.	6	0.72	-18%
COc1ccc(N(CC(=O)NCc2ccco2)S(C)(=O)=O)cc1	.	.	.	.	0.9	.	-8	0.65	13%
Cc1cc(OCc2nc(-c3cccs3)no2)cc(C)c1Cl	i	-2	-3	2.2	1.3	-1.3	0	0.69	-4%
O=C(CNC(=O)OCc1ccccc1)NCC(=O)N1CCCC1C(=O)OCc1ccccc1 (configuration not stated)	.	.	.	.	-0.8	.	-7	0.72	1%
COc1ccc(-c2cc(C(=O)N/N=C/c3cccnc3)c3ccccc3n2)c(OC)c1	i	.	.	.	4.3	-0.3	1	.	.
Cc1nc(Cc2nnc(SCC(=O)N3CCN(c4ccc(O)cc4)CC3)o2)cs1	i	1	8	-2.6	-0.3	-33	.	0.68	-2%
CC1CN(C(C)C(=O)NNC(=O)c2ccc(F)cc2)CC(C)O1 (configuration not stated)	i	7	12	2.5	-0.1	10.0	-3	0.67	-5%
O=S(=O)(NCCc1ccncc1)c1ccc(Br)cc1	.	.	.	.	-0.6	.	-20	0.71	0%
The list continues.
SMILES	FGF22 binding	rRNA inh HTS	rRNA inh HTS OD600	rRNA inh HTS RFP	HNF4A DNA FP	MLL AF4-AF9 inh	ALR inh	E coli growth	Vif TR-FRET
CCc1ccccc1NC(=O)CCS(=O)(=O)c1ccc(C)cc1	i	5	-1	-1.0	-4.8	-1.1	-2	0.67	1%
O=C1CCCN1c1ncc(S(=O)(=O)c2ccc([N+](=O)[O-])cc2)s1	i	8	7	-6.2	1.0	-1.3	-4	0.67	.
O=C1C2C(c3ccccc3)=NN(c3ccccc3)C2C(=O)N1c1ccccc1 (configuration not stated)	i	.	.	.	-0.5	-5.0	.	0.73	-7%
CCOc1cc(CNCCO)ccc1OCC(=O)NC(C)(C)C	i	20	11	1.5	1.3	-1.1	-21	0.73	.
O=C(NC1CCCCC1)N1CC2(C1)[C@@H](c1ccccc1)[C@@H](CO)N2CC1CCCC1	i	-8	-19	5.4	.	0.4	.	.	.
COc1cc(NC(=O)CSc2nnc3c(C)cc4cc(C)cc(C)c4n23)c(C(=O)O)cc1OC	i	6	8	0.0	-1.0	-4.0	2	0.62	15%
C[C@H]1CN([C@@H](C)CO)C(=O)c2cc(NC(=O)NC3CCCCC3)ccc2O[C@H]1CN(C)Cc1ccc(C(=O)Nc2ccccc2N)cc1	i	-1	-2	-0.6	.	-1.0	.	.	.
C[C@@H]1CN([C@@H](C)CO)S(=O)(=O)c2ccc(C#CCN(C)C)cc2O[C@H]1CN(C)C(=O)C1CCCCC1	i	0	3	-2.2	.	2.2	.	.	.
COCCn1c(SCC(=O)N2CCCC2=O)nnc1-c1ccncc1	i	7	12	-3.6	-2.4	-1.6	.	.	-7%
O=C(CCN1C(=O)[C@@H]2Cc3ccccc3CN2C1=O)NCCc1ccccc1	i	-1	4	1.5	0.5	-0.3	3	0.72	.
CNC(=S)N/N=C/c1cc(C)ccc1C	i	3	-2	0.7	3.7	4.8	14	.	14%
O=C(Nc1cccc2ncccc12)C(Cl)(Cl)Cl	i	.	.	.	-4.5	6.7	-4	0.76	4%
Cc1cc(C)cc(NC(=O)c2cccc(NC(=O)c3ccco3)c2)c1	i	-24*	-12*	-2.5*	-2.1	.	-2	0.64	.
C[C@H](CO)N1C[C@H](C)[C@@H](CN(C)Cc2ccc(C(F)(F)F)cc2)OCc2cnnn2CCCC1=O	i	6&-1	-5&-1	0.5&4.2	-2.9	2.1&1.2	.	.	2%
N#Cc1cccc(CS(=O)(=O)c2ccc(Cl)cc2)c1	i	3	9	4.5	7.3	-2.5	1	0.68	-1%
COC(=O)[C@@](C)(O)C1(C(=O)SC(C)(C)C)CC1	i	6	7	-2.6	3.8	-1.1	2	0.65	.
CC1(C(=O)NS(=O)(=O)C2CC2)CCCN(C(=O)c2cccc(C(F)(F)F)c2)C1 (configuration not stated)	i	.	.	.	-1.0	-1.1	.	.	.
COC(=O)C(Cc1ccc(OC(=O)c2ccc(Cl)cc2)cc1)N1Cc2ccccc2C1=O (configuration not stated)	.	.	.	.	0.5	.	.	0.76	0%
Cc1cc(OCC(=O)N2CCN(c3ncccn3)CC2)ccc1Cl	i	-1	-19	-1.2	1.5	-7.8	-11	0.69	1%
Cc1ccc(S(=O)(=O)N[C@@H]2CC[C@H](CC(=O)NCc3ccc(Cl)c(Cl)c3)O[C@@H]2CO)cc1	i	-21	-56	24	.	2.7	.	.	.

Laid out differently: entries from further up
| mol | FGF22 binding | rRNA inh HTS | rRNA inh HTS OD600 | rRNA inh HTS RFP | HNF4A DNA FP | MLL AF4-AF9 inh | ALR inh | E coli growth | Vif TR-FRET |
| --- | --- | --- | --- | --- | --- | --- | --- | --- | --- |
| O=C(CNC(=O)OCc1ccccc1)NCC(=O)N1CCCC1C(=O)OCc1ccccc1 (configuration not stated) | . | . | . | . | -0.8 | . | -7 | 0.72 | 1% |
| COc1ccc(-c2cc(C(=O)N/N=C/c3cccnc3)c3ccccc3n2)c(OC)c1 | i | . | . | . | 4.3 | -0.3 | 1 | . | . |
